Bioassay records deposited in PubChem BioAssay by National Center for Advancing Translational Sciences (NCATS).
VDR inh: vitamin D3 receptor (human) inhibition; AID 504847; Potency, µM, without a hit: max response, negative = inhibition, actives largely listed as inhibitors; VDR-SRC2-3 peptide fluorescence polarization, 2 h; P11473; 400,000 compounds, 0.93% hits; active means well fitted inhibition curve with a large enough effect; inconclusive means small, poorly fitted or top-dose-only effect, or another doubt; inactive means no such curve, though single readings can be large or run the other way; further: series mostly up to about 120 µM
Target sequence (P11473 whole entry, looked up): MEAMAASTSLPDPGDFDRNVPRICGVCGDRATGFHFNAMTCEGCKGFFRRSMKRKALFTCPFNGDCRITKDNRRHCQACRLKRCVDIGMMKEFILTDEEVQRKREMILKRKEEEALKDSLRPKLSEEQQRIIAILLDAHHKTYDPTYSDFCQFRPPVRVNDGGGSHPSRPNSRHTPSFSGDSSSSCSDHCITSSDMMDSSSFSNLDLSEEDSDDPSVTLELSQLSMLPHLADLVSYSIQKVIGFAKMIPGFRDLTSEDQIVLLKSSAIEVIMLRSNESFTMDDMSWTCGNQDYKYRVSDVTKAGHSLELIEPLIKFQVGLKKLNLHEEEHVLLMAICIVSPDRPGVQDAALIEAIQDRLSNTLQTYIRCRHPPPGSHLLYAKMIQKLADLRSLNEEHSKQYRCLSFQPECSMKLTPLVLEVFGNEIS
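Fluorescence polarization assay of small-molecule disruption of VDR binding to coregulator peptide SRC2-3. Compounds and controls pin-transferred, then read after 2 h incubation at ambient room temperature.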
Active calls of the source: *; u = inconclusive. On the % scale 0 is the no-effect control and ±100 the full control effect; potency means the concentration at half of the fitted maximal effect. A portion of the library (hit frequency here may not be typical).

Sample of the layout, 14 compounds:
SMILES | VDR inh
Cc1cc(C)c2c(CN3CCN(CCO)CC3)cc(=O)oc2c1 | -16%
Cc1nc2sc3c(NCc4ccco4)ncnc3c2c2c1COC(C)(C)C2 | 14%
Nc1nnc(SCc2coc(-c3ccc(Cl)cc3)n2)s1 | 7%
COc1ccccc1N1CCN(/N=C/c2cc(OC)c(O)c(OC)c2)CC1 | 3%
Cc1ccc(S(=O)(=O)CC(=O)Nc2nc(C(C)(C)C)cs2)cc1 | 8%
CCCC1=Nc2cc(C(=O)NCCc3ccc(OC)cc3OC)ccc2Sc2ccccc21 | -21%
COc1ccc(C(C(=O)NCC2CCCO2)N(C(=O)c2snc(C(N)=O)c2N)c2ccccc2)cc1OC (stereo unspecified) | -12%
Cc1cc(C)c2c(-n3cccc3)n[nH]c2n1 | 20%
Cc1nnc(N/N=C\c2ccc(-c3cccc(C(=O)O)c3)o2)n1N | -17%
COc1ccc(C(=O)Nc2noc3ccccc23)cc1 | 6%
O=C1C=C(c2cccc(Cl)c2O)C[C@@H](c2ccc(Cl)cc2)C1 | -1%
Cc1ccc(C(=O)Nc2ccc3c(c2)nc(CCNC(=O)c2ccco2)n3C)cc1 | 1%
CCc1cc2c(cc3c(=O)n(CC(=O)N4CCN(c5cc(Cl)ccc5C)CC4)ncn32)s1 | -2%
COc1ccc(C)c2sc(NC(=O)C3CC3)nc12 | -15%

Results, repeating the preview:
SMILES | VDR inh
Cc1cc(C)c2c(CN3CCN(CCO)CC3)cc(=O)oc2c1 | -16%
Cc1nc2sc3c(NCc4ccco4)ncnc3c2c2c1COC(C)(C)C2 | 14%
Nc1nnc(SCc2coc(-c3ccc(Cl)cc3)n2)s1 | 7%
COc1ccccc1N1CCN(/N=C/c2cc(OC)c(O)c(OC)c2)CC1 | 3%
Cc1ccc(S(=O)(=O)CC(=O)Nc2nc(C(C)(C)C)cs2)cc1 | 8%
CCCC1=Nc2cc(C(=O)NCCc3ccc(OC)cc3OC)ccc2Sc2ccccc21 | -21%
COc1ccc(C(C(=O)NCC2CCCO2)N(C(=O)c2snc(C(N)=O)c2N)c2ccccc2)cc1OC (stereo unspecified) | -12%
Cc1cc(C)c2c(-n3cccc3)n[nH]c2n1 | 20%
Cc1nnc(N/N=C\c2ccc(-c3cccc(C(=O)O)c3)o2)n1N | -17%
COc1ccc(C(=O)Nc2noc3ccccc23)cc1 | 6%
O=C1C=C(c2cccc(Cl)c2O)C[C@@H](c2ccc(Cl)cc2)C1 | -1%
Cc1ccc(C(=O)Nc2ccc3c(c2)nc(CCNC(=O)c2ccco2)n3C)cc1 | 1%
CCc1cc2c(cc3c(=O)n(CC(=O)N4CCN(c5cc(Cl)ccc5C)CC4)ncn32)s1 | -2%
COc1ccc(C)c2sc(NC(=O)C3CC3)nc12 | -15%
CCc1nnc(NS(=O)(=O)c2ccc(NC(=O)/C=C/c3ccccc3Cl)cc2)s1 | -4%
COc1cc(NC(=O)c2cc3ccccc3cc2O)c(OC)cc1Cl | -11%
COc1cc(CN2CCCN(C)CC2)c([N+](=O)[O-])cc1OC | 4%
O=C(COC(=O)/C=C/c1ccc([N+](=O)[O-])cc1)Nc1ccc(F)cc1 | -10%
O=C(c1ccccc1)N1CCN(c2ncccn2)CC1 | 2%
CC(C)(CNC(=O)CNC(=O)c1ccccc1F)N1CCOCC1 | 1%

Going on with the list.
SMILES | VDR inh
CCOC(=O)c1c(C)nc2sc(C(=O)Nc3ccc(C(C)=O)cc3)c(N)c2c1-c1ccc(OC)cc1 | 1%
COc1ccc(C2CC(c3ccco3)n3ncnc3N2)cc1 (stereo unspecified) | u
COCCNC(=O)c1ccc(NC(C)=O)cc1 | -2%
CN(CC(=O)Nc1ccc(F)cc1)C(=O)CSc1nnc(Cc2ccccc2)o1 | u
O=C(COc1ncnc2cc(Cl)ccc12)c1ccccc1 | 5%
COc1ccc(NC(=O)CSCC(=O)Nc2ccc(S(=O)(=O)N3CCCC3)cc2)cc1 | -8%
O=C(Cn1c(=O)nc(-c2ccccc2)c2cc(Cl)ccc21)NCCCc1ccccc1 | -16%
CC1(C)CC(=O)c2c(noc2-c2ccccc2)C1 | 21%
N#CC1(C#N)CC(C=O)=C(N)C1(C#N)CC(=O)C12CC3CC(CC(C3)C1)C2 (stereo unspecified) | u
COCCCNC(=O)c1cc2c(s1)CS(=O)(=O)C2 | 2%
COc1ccccc1CN1CCCC2(CCN(C(=O)c3ccco3)CC2)C1 | -6%
CCOc1cc(C2NC(=S)NC(C)=C2C(=O)Nc2ccccc2)ccc1O (stereo unspecified) | -21%
CC(Sc1n[nH]c(N)n1)c1nc2scc(-c3cccs3)c2c(=O)[nH]1 (stereo unspecified) | 0%
O=C(CSc1nnc(SCc2ccccc2)s1)N/N=C/c1ccc(C(=O)O)cc1 | 9%
COc1cccc(-c2cc(NCc3ccccc3OC)ncn2)c1 | -21%
CCOC(=O)c1[nH]c2ccc(OC)cc2c1NC(=O)CCN1CCN(Cc2ccccc2)CC1 | 9%
CCOc1ccc(NC(C)c2cc(Cl)ccc2O)cc1 (stereo unspecified) | 1%
O=C(c1ccc(=O)[nH]c1)N(Cc1ccco1)C1(C(=O)NC2CCCC2)CCCCC1 | 0%
COC(=O)c1sc(NC(=O)/C=C/c2ccc(C)cc2)nc1C | -11%
O=C(Cn1cnc2c(cnn2-c2ccccc2)c1=O)NC1CCCC1 | -25%

New compounds follow:
SMILES | VDR inh
CC1CC(C)CN(S(=O)(=O)c2ccc(C(=O)NNC(=O)c3ccccc3F)cc2)C1 (stereo unspecified) | -9%
CC(SCC(=O)NC12CC3CC(CC(C3)C1)C2)C(=O)O (stereo unspecified) | 1%
CCOc1ccc(-c2ccc(/C=C3/C(=N)N4C(C)=CSC4=NC3=O)o2)c([N+](=O)[O-])c1 | u
COc1ccc(Cn2nnnc2CN(Cc2cc3cccc(C)c3[nH]c2=O)C2CCCC2)cc1 | 13%
CCOc1ccc(CNC(c2ccccc2)c2ccccc2)cc1 | 11%
CCCN(CC(=O)Nc1ccccc1C)C(=O)CCl | u
CC(C)C[C@H]1CN=C(N(C)C)N1CC(C)C | -3%
CNC(=O)n1ccc(C(=O)N2CCCCC2)n1 | 1%
Cc1onc(-c2ccccc2Cl)c1C(=O)Nc1cc(=O)n(C)c(=O)n1C | -20%
CC(=O)Nc1ccc(/C=N/NC(=O)CCN2CCN(c3ccccc3)CC2)cc1 | 17%
CCN(C(=O)c1cn(C)c(=O)c2cc(OC)c(OC)cc12)c1ccccc1C | 0%
O=C(CCCCn1c(=O)[nH]c2ccsc2c1=O)NCC1CCCO1 (stereo unspecified) | 3%
CCCn1nc(Oc2nc(N(C)C)nc(N(C)C)n2)ccc1=O | 7%
CN(c1ccc(C(=O)N2CCOCC2)cc1)S(=O)(=O)c1ccc(Cl)cc1 | -8%
CCOC(=O)C1=C(CSc2nc(-c3ccncc3)ccc2C#N)OC(N)=C(C#N)C1c1cccnc1 (stereo unspecified) | -6%
Cc1noc(C)c1C(=O)NC(C)C1CCCO1 (stereo unspecified) | -5%
COCCN1CCN(C(=O)C2CCC(=O)N(CCCc3ccccc3)C2)CC1 (stereo unspecified) | 18%
O=C(Cn1c(NCCCO)nc2ccccc21)c1ccc(F)cc1 | 8%
O=S(=O)(Nc1cccc(-n2cnnn2)c1)c1ccccc1F | 3%
CC(Oc1cccc(Cl)c1)C(=O)Nc1ccc(S(=O)(=O)NC2=NCCCCC2)cc1 (stereo unspecified) | -5%

Next compounds follow:
SMILES | VDR inh
CCCOc1ccc(CN2CCOCC2)cc1OC | 2%
O=C(NC(CSC(=O)c1ccccc1)C(=O)O)OCc1ccccc1 (stereo unspecified) | -17%
CCNC(=O)c1cccc(NC(=O)CN2C(=O)NC3(CCCCC3)C2=O)c1 | 1%
Cc1ccc(-c2noc(CN(C3CCCCC3)S(=O)(=O)c3ccc(F)cc3)n2)cc1 | 12%
COc1ccc(-c2nc3c(c(SCC(=O)N4CCCCC4)n2)Cc2c(CO)cnc(C)c2O3)cc1 | 24%
C=CCn1c(SCC(=O)N(CCO)CCO)nc2sc3c(c2c1=O)CCC3 | -12%
CC(C)S(=O)(=O)C1=NSC2=NC(=O)/C(=C\c3ccc(-c4cccc(C(=O)O)c4)o3)C(=N)N21 | 3%
CC1(C)C(C=C(Cl)Cl)C1C(=O)Nc1ccc([N+](=O)[O-])cc1 (stereo unspecified) | -7%
COc1ccc(NC(=O)CN2C(=O)CC(C)(C)S(=O)(=O)c3ccccc32)cc1 | -14%
S=c1[nH]nc2c3c4c(sc3ncn12)CCCC4 | -14%
CCCCN1C(=O)c2ccc(C(=O)Nc3cccnc3)cc2C1=O | 6%
CC(C)(C)OC(=O)N1CCC(c2c(C(=O)N3CCN(c4ccccc4)CC3)cnn2-c2ccccc2)CC1 | 4%
Cc1nc2ccccc2n1CC(=O)N/N=C\C=C\c1ccccc1 | -1%
COC(=O)C(C)Oc1ccc2c(c1)O/C(=C\c1cccc(Br)c1)C2=O (stereo unspecified) | -18%
O=C1/C(=C/c2cccs2)SC(=S)N1CCCC(=O)N(CCO)c1ccccc1 | 13%
Cc1ccc(N(CC(=O)NC(C)(C)C)C(=O)CS(=O)CC(=O)Nc2ccc(F)cc2)cc1 (stereo unspecified) | 13%
CCOC(=O)c1c(C)[nH]c(C(=O)CN2CC(C)OC(C)C2)c1C (stereo unspecified) | 4%
COc1cccc(CNc2nccs2)c1O | -12%
Cn1cnnc1SCC(=O)Nc1ccc(Cl)cn1 | -6%
Cc1cc(Cl)ccc1-n1c(-c2cccnc2)n[nH]c1=S | 2%

Further results follow.
SMILES | VDR inh
Cc1nc(-c2cccc(NC(=O)c3ccco3)c2)cs1 | 3%
COc1ccc(O)c(C(=O)c2cnn(C(=O)c3cccc(S(=O)(=O)N4CCOCC4)c3)c2)c1 | 4%
CCn1c(SCC(=O)Nc2cccc(C)c2)nc2c(c1=O)SC(C)C2 (stereo unspecified) | -2%
CCN(CC)S(=O)(=O)c1ccc2c3c(cccc13)C(=O)S2 | -7%
Cc1ccc(NC(=O)C2CCN(c3nnc(C)c4c(C)n(-c5ccccc5)nc34)CC2)cc1Cl | 12%
COc1ccccc1CNC(=O)NCc1noc2ccc(C)cc12 | 7%
COc1ccccc1CNC(=O)COC(=O)c1cc([N+](=O)[O-])ccc1N1CCOCC1 | -18%
O=C(COC(=O)/C=C/c1ccc(OC(F)F)cc1)Nc1ccc(S(=O)(=O)N2CCCC2)cc1 | -2%
O=C(CCN1C(=O)C2C3C=CC(C3)C2C1=O)Nc1c(F)cc(F)cc1Br (stereo unspecified) | -2%
CC(OC(=O)c1cccs1)C(=O)NCc1ccc2c(c1)OCO2 (stereo unspecified) | 12%
COc1ccc(N(CC(=O)NC(C)c2ccccc2)S(=O)(=O)c2ccc(C)cc2)cc1 (stereo unspecified) | 5%
COCC(=O)Nc1nnc(Cc2ccc(OC)c(OC)c2)s1 | 7%
O=C(CCNS(=O)(=O)c1ccc2c(c1)CCC(=O)N2)Nc1ccc2c(c1)OCCO2 | 9%
CCSc1nc2c(cnn2-c2ccc(C)cc2)c(=O)[nH]1 | 4%
Cc1cc(C)c(S(=O)(=O)NCCc2sc(-c3cccnc3)nc2C)c(C)c1 | -2%
COC(=O)c1sc(NC(=O)C2CCCCC2C(=O)O)c(C(=O)OC)c1C (stereo unspecified) | -9%
CCSc1nnc(NC(=O)CSc2nccn2-c2cccc(C)c2C)s1 | u
C#CCOCCOCCOCCNc1nc(N2CCN(C(=O)[C@H](C(C)C)n3cc(CCO)nn3)CC2)nc(N2CCN(C(=O)[C@H]([C@@H](C)CC)n3cc(CCCN=C(N)N)nn3)CC2)n1 | u
COc1ccc(OC)c(C(=O)c2ccc(C(=O)O)cc2)c1 | 10%
CCS(=O)c1ccccc1C(=O)OCC(=O)N1CCC(c2ccccc2)=N1 (stereo unspecified) | 14%

Part of the list above, as labelled records.
Cc1noc(C)c1C(=O)NC(C)C1CCCO1 (stereo unspecified)
  VDR inh = -5%

COCCN1CCN(C(=O)C2CCC(=O)N(CCCc3ccccc3)C2)CC1 (stereo unspecified)
  VDR inh = 18%

Additional results
SMILES | VDR inh
Cc1nc2ccc(Oc3ccccc3)cc2s1 | -15%
CC(=O)Oc1ccc(C(=O)Cc2ccccn2)c(O)c1 | -18%
O=C(c1ccc(Cl)cc1)N1CCc2ccccc21 | 1%
CC1CCCN(S(=O)(=O)c2ccc(C(=O)Nc3nnc(-c4ccccn4)o3)cc2)C1 (stereo unspecified) | -8%
O=C(CN1CCN(c2ccccc2)CC1)Nc1ccc(F)cc1 | -16%
CCOC(=O)N1CCN(C(=O)c2cccc(OC)c2OC)CC1 | -3%
CC1(C)Oc2ccc(C(=O)N3CCCCC3)cc2N(CC(=O)NCc2ccccc2)C1=O | -12%
CC(=O)c1cccc(N2C(=NC(=O)C(C)C)SC3CS(=O)(=O)CC32)c1 (stereo unspecified) | 23%
COc1cccc(C2C(C(=O)c3cc4ccccc4o3)=C(O)C(=O)N2CCN(C)C)c1OC (stereo unspecified) | -11%
CCOC(=O)N1CCC(NC(=O)c2ccc3c(c2)N(Cc2cccc(C)c2)C(=O)c2ccccc2S3(=O)=O)CC1 | -4%
Cc1ccc(-n2nnnc2SCC(N)=O)c(C)c1 | 2%
COC(=O)C1(Cc2cc(-c3cccnc3)no2)CCN(C(=O)OC(C)(C)C)CC1 | 5%
CC(O)CNc1nc2c(c(=O)n(Cc3ccc(Cl)c(Cl)c3)c(=O)n2C)n1C (stereo unspecified) | 2%
O=C1C=C(NC2=CC3OC(c4ccccc4)OCC3OC2=O)CCC1 (stereo unspecified) | 79µM*
Cc1cccc(C)c1NC(=O)C(=O)NCc1ccccn1 | 6%
